From PubChem
PV pol inh = inhibitors of poliovirus RNA polymerase binding and polymerization; P03300; poliovirus polymerase elongation, fluorescence polarization; stronger effect = lower value; % elongation, % (compound at 16.7 µg/mL); actives 0.66% (n = 150,000); in the data active = % elongation below about 90%; note: some results filed as inactive read as strong as hits
MenB inh = inhibitors of Mycobacterium tuberculosis MenB enzyme | P9WNP5 | MenB enzyme assay, absorbance read-out; some hits fall short of the stated cut | inhibition, %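 (about 12 µg/mL by stock and volumes)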 | actives 0.43% (n = 100,000) | AID 540299;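 active = mean of two replicates above 30%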;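 note: 0% = no compound and 100% = wells with inactive enzyme; the first replicate is given; strong numbers were not always called active; inactives centre near -10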
Target sequence (P9WNP5 whole entry, looked up): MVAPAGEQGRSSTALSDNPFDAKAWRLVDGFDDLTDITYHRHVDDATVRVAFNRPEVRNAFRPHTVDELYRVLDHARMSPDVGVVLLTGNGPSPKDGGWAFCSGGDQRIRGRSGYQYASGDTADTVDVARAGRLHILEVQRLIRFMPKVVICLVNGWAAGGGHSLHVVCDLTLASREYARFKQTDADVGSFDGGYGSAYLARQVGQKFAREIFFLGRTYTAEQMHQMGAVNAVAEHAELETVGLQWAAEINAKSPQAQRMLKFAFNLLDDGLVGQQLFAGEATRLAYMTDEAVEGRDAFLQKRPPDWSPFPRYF
MbtI inh = blocks the Mycobacterium tuberculosis siderophore enzyme MbtI; P9WFX0; purified MbtI enzyme, fluorescence intensity read-out; inhibition, %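 (about 17 µg/mL by stock and volumes)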; actives 0.89% (n = 100,000);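 active = above 50% in both replicates, above 80% if mildly self-fluorescent; inactive = the rest, strongly fluorescent compounds included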;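 note: 0% = mean of negative and 100% = mean of positive controls; one replicate is shown; some compounds called inactive have numbers as strong as hits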
Target sequence (P9WFX0 whole entry, looked up): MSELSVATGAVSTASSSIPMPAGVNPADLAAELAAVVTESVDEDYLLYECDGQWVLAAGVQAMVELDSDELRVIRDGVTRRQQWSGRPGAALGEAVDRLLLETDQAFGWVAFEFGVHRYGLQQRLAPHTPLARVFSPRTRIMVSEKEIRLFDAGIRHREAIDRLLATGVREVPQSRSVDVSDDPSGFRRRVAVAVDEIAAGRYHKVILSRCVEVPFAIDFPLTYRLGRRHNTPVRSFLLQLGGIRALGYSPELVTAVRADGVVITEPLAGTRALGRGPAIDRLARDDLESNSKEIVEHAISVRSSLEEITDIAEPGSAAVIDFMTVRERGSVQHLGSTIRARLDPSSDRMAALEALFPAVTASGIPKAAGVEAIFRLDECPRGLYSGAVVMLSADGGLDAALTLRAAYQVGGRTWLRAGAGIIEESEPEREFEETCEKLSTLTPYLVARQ
PV pol inh intensity = further read-out of PV pol inh, marked with its call; % elongation; measured here: total intensity read-out; formula for this scale not given here;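 total fluorescence in place of polarization; lower means less elongation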
The depositor's hits bear a star; i = inactive; . = no result given. No enrichment for hits (roughly 1.9% active in at least one column).

SMILES | PV pol inh | PV pol inh intensity | MenB inh | MbtI inh
CCCOc1ccc(-c2nc(SCC(N)=O)[nH]c(=O)c2C#N)cc1OC | 100.0 | 103.0 | -15.2 | -12.4
CCCCn1c(=O)c(-[n+]2ccccc2)c([O-])c2ccccc21 | 101.0 | 104.0 | -6.5 | 2.0
CCOC(=O)C1C(=O)C=C(c2ccc(NS(C)(=O)=O)cc2)CC1c1ccco1 (stereo not given) | 102.0 | 103.0 | -40.8 | 14.5
COc1cc2c(cc1OC)C1C(C)C(=O)C3=C(CSCC3=O)N1CC2 (stereo not given) | 100.0 | 95.0 | 18.2 | .
Cc1oc2c(C)c3oc(=O)c4c(c3cc2c1-c1ccccc1)CCCC4 | 103.0 | 108.0 | -18.9 | -8.2
O=C(Nc1cccc(-c2nnco2)c1)c1ccc(C(F)(F)F)cc1 | 105.0 | 112.0 | -5.7 | -1.6
C=CCn1c(O)c(C=NCC)c(=O)[nH]c1=S | 99.0 | 99.0 | 24.8 | 23.8
CCCc1cc(C(=O)Cc2ccccn2)c(O)cc1O | 103.0 | 97.0 | . | -6.2
CNC(=S)NC(=O)c1ccccc1 | 104.0 | 105.0 | -9.1 | -7.8
Nc1nc2c(nc(SCc3ccccc3Br)n2C2OC(CO)C(O)C2O)c(=O)[nH]1 (stereo not given) | 102.0 | 102.0 | -25.1 | -5.4
COC(=O)Cc1nc(-c2ccc(F)cc2)sc1C | 107.0 | 113.0 | -26.5 | -25.4
CCCC(NC(=O)c1ccccc1)c1nc2ccccc2n1Cc1ccc(C(=O)OC)o1 (stereo not given) | 101.0 | 104.0 | 1.2 | -8.1
S=C1Nc2ccccc2CS1 | 104.0 | 107.0 | -0.7 | 35.6
c1ccc(N2CCN(C3CCc4ccccc4C3)CC2)cc1 (stereo not given) | 100.0 | 103.0 | -14.5 | -8.9
O=c1c2oc3ccccc3c2[nH]c(=S)n1-c1ccccc1 | 98.0 | 97.0 | -41.4 | 90.7
COC(=O)c1cc(COC(=O)c2ccccc2Sc2ccccc2C#N)oc1C | 103.0 | 100.0 | 9.2 | 6.8
CN(C(=O)Cn1nc(C(F)(F)F)c2c1CCCC2)c1ccccc1 | 98.0 | 99.0 | -16.1 | -4.6
CC(Sc1nc(N)cc(N)n1)C(=O)O (stereo not given) | 102.0 | 103.0 | -6.2 | .
O=C1Nc2ccccc2N(O)N1c1cc(-c2ccccc2Cl)no1 | 100.0 | 105.0 | -1.0 | -7.8
CC(=O)N(C)C1=C(O)c2ccccc2C(=O)C1=O | 98.0 | 95.0 | -51.3 | 8.9

Structural class: those above containing fluorine.
SMILES | PV pol inh | PV pol inh intensity | MenB inh | MbtI inh
O=C(Nc1cccc(-c2nnco2)c1)c1ccc(C(F)(F)F)cc1 | 105.0 | 112.0 | -5.7 | -1.6
COC(=O)Cc1nc(-c2ccc(F)cc2)sc1C | 107.0 | 113.0 | -26.5 | -25.4
CN(C(=O)Cn1nc(C(F)(F)F)c2c1CCCC2)c1ccccc1 | 98.0 | 99.0 | -16.1 | -4.6

Three compounds drawn at random from the list so far, as already listed:
SMILES | PV pol inh | PV pol inh intensity | MenB inh | MbtI inh
CC(=O)N(C)C1=C(O)c2ccccc2C(=O)C1=O | 98.0 | 95.0 | -51.3 | 8.9
COC(=O)c1cc(COC(=O)c2ccccc2Sc2ccccc2C#N)oc1C | 103.0 | 100.0 | 9.2 | 6.8
CC(Sc1nc(N)cc(N)n1)C(=O)O (stereo not given) | 102.0 | 103.0 | -6.2 | .

(further entries)
SMILES | PV pol inh | PV pol inh intensity | MenB inh | MbtI inh
CCC(NCC(O)Cn1c2ccccc2c2ccccc21)C(=O)O (stereo not given) | 102.0 | 101.0 | -16.6 | -1.6
Cc1cc(C(=O)O)c2cc(F)ccc2n1 | 110.0 | 113.0 | -8.6 | .
CCC(C)OC(=O)C1=C(C)NC(=O)NC1c1ccc(F)c(Br)c1 (stereo not given) | 104.0 | 100.0 | -9.4 | -7.5
CC(C)Cn1c(=O)c2ccccc2n2c(CCC(=O)O)nnc12 | 100.0 | 101.0 | -31.8 | 1.5
CCCc1cc(=O)[nH]c(SCC(=O)N2CCC(C)CC2)n1 | 101.0 | 110.0 | 13.3 | 2.4
CCCc1nnc(SCC(=O)N2CCCC2)n1CCOC | 100.0 | 102.0 | -3.3 | -6.5
Nn1c(SCC(=O)N2CCc3ccccc32)nncc1=O | 99.0 | 97.0 | -21.2 | -2.6
O=c1c2ccccc2nc2n1CCO2 | 103.0 | 106.0 | -17.3 | 8.3
CCOC(=O)CCc1ccc(OCc2c(C)c(C)c(C)c(C)c2C)cc1 | 113.0 | 109.0 | -11.9 | -0.2
Cc1nn(-c2ccccc2)c2sc(C(=O)OCC(=O)Nc3ccccc3)cc12 | 102.0 | 104.0 | -2.6 | 27.5
COCCOc1ccc(C(F)(F)F)cc1NCC(=O)NCc1ccc2c(c1)OCO2 | 98.0 | 103.0 | -18.7 | -9.1
O=C(CSc1cccc[n+]1[O-])Nc1ccc(F)c(F)c1 | 101.0 | 104.0 | . | -2.5
CC1CCN(Cc2cc(Cl)c3cccnc3c2O)CC1 | 115.0 | 122.0 | -20.4 | .
CCS(=O)(=O)c1ccc(O)c(NC(=O)COc2ccc(Cl)c(C)c2)c1 | 100.0 | 101.0 | -7.3 | -5.6
O=C(Nc1ccccc1)N(Cc1nnc2n1CCCCC2)c1ccc(I)cc1 | 90.0* | 88.0* | -6.8 | .
CC(=O)Nc1ccc(C(=O)N2CC(C)OC(C)C2)cc1 (stereo not given) | 103.0 | 103.0 | -14.6 | 3.6
Cc1ccc2oc(-c3cc(N=C/C=C/c4ccc5c(c4)OCO5)ccc3O)nc2c1 | 103.0 | 103.0 | -34.6 | -8.9
CC(C)(O)C#Cc1ccccn1 | 99.0 | 102.0 | -72.1 | -1.9
O=C(c1ccccc1)N1CCCSc2ccccc21 | 102.0 | 105.0 | -10.3 | -9.5
Cc1ccccc1NCC(=O)NN | 108.0 | 101.0 | -13.2 | .
Cc1noc(C)c1COc1ccc(C(=O)OCC(N)=O)cc1 | 99.0 | 103.0 | -19.3 | -6.5
CCC12CN3CC(CC)(CN(C1)C3c1ccccc1)C2O (stereo not given) | 102.0 | 98.0 | 19.5 | 0.9
CCC(C)NC(=O)CN1C(=O)C2C3C=CC(C3)C2C1=O (stereo not given) | 102.0 | 103.0 | -10.4 | -12.9
O=c1[nH]c(=O)n(CCO)c2nonc12 | 99.0 | 101.0 | 2.3 | 1.9
O=C(c1cccc(S(=O)(=O)NCc2ccccc2)c1)N1CCCC1 | 102.0 | 106.0 | . | -19.0
O=C(CSc1nc2ccccc2n1S(=O)(=O)c1ccc(Cl)cc1)NCCc1ccccc1 | 102.0 | 106.0 | -3.4 | -2.1
COc1ccc(Cl)cc1NCC(=O)N1CCc2ccccc2C1 | 103.0 | 96.0 | . | -2.5
O=C(NN1C(=O)c2ccccc2C1=O)C(O)c1ccccc1 (stereo not given) | 98.0 | 103.0 | -17.0 | -8.8
FC(F)(F)c1cccc(OCc2ccc(-c3ncns3)cc2)c1 | 106.0 | 107.0 | 8.8 | -10.4
Cc1cccc(N(Cc2ccccc2)C(=O)COc2ccc(-c3nnco3)cc2)c1 | 99.0 | 97.0 | -46.1 | -7.9
CCOc1ccc(NC(=O)C2CCN(S(=O)(=O)c3cnc[nH]3)CC2)cc1 | 100.0 | 100.0 | -13.3 | 2.2
CCOC(=O)Cc1csc(-c2ccccc2F)n1 | 103.0 | 107.0 | -3.9 | -0.8
COC(=O)/C=C1\Nc2ccccc2SC1=O | 99.0 | 100.0 | -25.5 | -0.4
NC1=NNC2=C(c3ccccc3C(F)(F)F)NNN12 | 101.0 | 107.0 | -134.2 | .
COc1ccc(-c2nc(NC(=O)c3cccc(-n4cnnn4)c3)sc2C)cc1 | 101.0 | 103.0 | -17.3 | 1.7
CC1(C)Cc2ccccc2C2=NNC(=O)C2=N1 | 84.0* | 77.0* | 6.5 | 4.9
CCOc1cccc(/C(O)=C2/C(=O)C(=O)N(Cc3ccncc3)C2c2ccccc2)c1 (stereo not given) | 107.0 | 105.0 | -24.5 | 0.5
Cc1ccc(C(=O)NCCN2CCNC2=O)cc1 | 104.0 | 97.0 | -19.4 | 1.5
CCc1nc2c(c(=O)[nH]1)C1(CCCCC1)Cc1ccccc1-2 | 101.0 | 103.0 | -0.5 | 2.8
COc1ccc(-n2c(O)c(C=NC(C)(C)C)c3ccccc3c2=O)cc1 | 104.0 | 106.0 | . | -17.5
O=c1cc(O)c2sc3nc4c(c(C(F)(F)F)c3c2[nH]1)CCCCC4 | 102.0 | 99.0 | -44.8 | -21.7
CCOC(=O)C1=C(C)NC(C)=C(C(=O)OCC)C1C(=O)OCc1cc(=O)oc2cc(O)ccc12 | 104.0 | 104.0 | -19.7 | -32.8
C=CCN1CCN(C(=O)Cc2cccc(C)c2)CC1 | 99.0 | 100.0 | 8.5 | -1.6
CC(C)N1CC(C(=O)Nc2ccc(Cl)c(Cl)c2)CC1=O (stereo not given) | 101.0 | 99.0 | -5.4 | .
O=C(CN1CCCc2ccccc21)Nc1ccccc1 | 101.0 | 106.0 | -31.0 | -3.1
CNC(=O)NC(=O)CSc1nnc(-c2ccco2)o1 | 106.0 | 105.0 | 11.4 | 2.5
Nc1cccc(F)c1-c1ncon1 | 101.0 | 96.0 | 16.1 | -8.0
Cc1nc2ccccc2nc1CSc1nc2sc3c(c2c(=O)n1C)CCC(C)C3 (stereo not given) | 103.0 | 110.0 | -13.6 | .
CCN1C(=O)CCC1(C)C(=O)NC1CCCC1 (stereo not given) | 103.0 | 104.0 | -13.1 | -4.5
COc1ccccc1C(=O)N/C(=C\c1ccccc1)C(=O)N1CCOCC1 | 97.0 | 100.0 | -5.5 | 1.8

Ordered by count of non-hydrogen atoms (highest first): some entries from above
SMILES | PV pol inh | PV pol inh intensity | MenB inh | MbtI inh
CCOC(=O)C1=C(C)NC(C)=C(C(=O)OCC)C1C(=O)OCc1cc(=O)oc2cc(O)ccc12 | 104.0 | 104.0 | -19.7 | -32.8
Cc1nc2ccccc2nc1CSc1nc2sc3c(c2c(=O)n1C)CCC(C)C3 (stereo not given) | 103.0 | 110.0 | -13.6 | .
COc1ccccc1C(=O)N/C(=C\c1ccccc1)C(=O)N1CCOCC1 | 97.0 | 100.0 | -5.5 | 1.8
O=c1cc(O)c2sc3nc4c(c(C(F)(F)F)c3c2[nH]1)CCCCC4 | 102.0 | 99.0 | -44.8 | -21.7
O=C(CN1CCCc2ccccc21)Nc1ccccc1 | 101.0 | 106.0 | -31.0 | -3.1
C=CCN1CCN(C(=O)Cc2cccc(C)c2)CC1 | 99.0 | 100.0 | 8.5 | -1.6

Next compounds
SMILES | PV pol inh | PV pol inh intensity | MenB inh | MbtI inh
O=c1/c(=C2/CCCCCN2)c2nc(-c3ccccc3)cn2n1-c1ccccc1 | 105.0 | 100.0 | -34.3 | .
COc1ccc(C2(C(=O)N3CCC(n4nc(-c5ccccc5)oc4=O)CC3)CC2)cc1 | 101.0 | 101.0 | 0.6 | -15.4
c1ccc(-c2nn3c(-c4ccccc4)nnc3c3ccccc23)cc1 | 102.0 | 102.0 | 7.8 | 12.6
O=C(NCc1ccc2c(c1)OCO2)c1cccc(C(=O)NCc2ccc3c(c2)OCO3)c1 | 101.0 | 102.0 | -0.7 | -8.9
CCCCn1cc(C(=O)c2cc(C)ccc2O)cc(C#N)c1=O | 107.0 | 111.0 | -4.7 | -12.6
CC1=C(C(=O)OCC2CCCO2)C(c2ccc(C)o2)C2=C(CCCC2=O)N1 (stereo not given) | 102.0 | 101.0 | -17.0 | -4.3
CCCN(CC1CC1)C(=O)CSc1nnc(Nc2ccccc2F)s1 | 100.0 | 108.0 | -14.1 | 2.5
O=S1(=O)N=C(Cl)c2ccccc21 | 99.0 | 92.0 | -10.2 | 17.4
COc1cc(/C=C/C(=O)OCC(=O)Nc2cccc(F)c2)ccc1O | 107.0 | 104.0 | -6.8 | -51.4
Cc1oc(-c2cccc(Cl)c2)nc1CSc1nc2c(c(=O)[nH]1)CCCC2 | 101.0 | 107.0 | -0.1 | 5.8
CCc1ccc(N2CC(C(=O)NC(C)CC)CC2=O)cc1 (stereo not given) | 100.0 | 100.0 | 8.3 | -0.4
N#CC(Cc1cccnc1)C(=O)Nc1ccccc1 (stereo not given) | 103.0 | 100.0 | -34.9 | -2.0
Cc1[nH]c2ccc(C(=O)Nc3ccccc3N3CCOCC3)cc2c1C | 101.0 | 106.0 | -17.7 | -10.6
COc1cc2c(N3C(=O)CCC3=O)c3c(=O)oc(C)cn3c2cc1OC | 106.0 | 103.0 | -12.0 | 90.7
Cc1ccc(NC(=O)CSc2nc3ncccc3[nH]2)cc1 | 104.0 | 102.0 | -19.1 | 34.8
Cc1ccc(S(=O)(=O)NC(C)C(c2cccs2)N2CCN(C)CC2)cc1 (stereo not given) | 100.0 | 103.0 | 6.0 | -4.7
CCn1c(C(=O)NCc2ccccc2)cc2oc3ccccc3c21 | 106.0 | 106.0 | -102.7 | i
COc1ccc(C2(C(=O)NC(C)C)CCOCC2)cc1 | 106.0 | 102.0 | -59.7 | -5.0
O=C1c2ccccc2C(=O)N1CC1CCCN2CCCCC12 (stereo not given) | 104.0 | 100.0 | -2.7 | -6.5
O=C(COc1cc(O)c2c(=O)cc(-c3ccccc3)oc2c1)c1ccccc1 | 103.0 | 108.0 | -6.5 | -7.2
CCN(C(=O)c1sc2nc3n(c(=O)c2c1C)CCCC3)c1ccccc1 | . | . | -12.7 | -11.2
CCC(C)C1NC(=S)N(C2CCCCC2)C1=O (stereo not given) | 102.0 | 97.0 | 2.3 | 3.7
